Compound activity (PubChem)
Choline anaer gr: growth inhibitors of anaerobic choline-fed gram-negatives, minimal medium, absorbance. Gram-negative bacterium anaerobic choline minimal medium; stronger effect = lower value; many inactives read as strong as hits in the columns shown. calls only. actives 0.2% (n = 55,000). AID 1963822, 2024;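 active = growth z-score on choline under -2 at 7 or 20 h with little or no fall on glycerol, limits in tiers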;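 note: stock transfer was 300 nL into about 50 µL; the organism is E. coli; final concentration not given here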
Choline anaer gr early: second read-out of Choline anaer gr, no call of its own (marks repeat the call); z-score; measured here: choline growth z-score, timepoint 1;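 score of optical density at 7 h as mean of two plates; lower means less growth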
* = called active by the depositor; i = inactive; & = joins results of further samples.

The opening 6 compounds, to show the layout:
entry	mol	Choline anaer gr early	Choline anaer gr
1	CC(C)CNC(=O)C1CCCN(C(=O)c2ccc(NS(=O)(=O)c3ccc(C(C)(C)C)cc3)cc2)C1 (stereo unspecified)	-1.2	i
2	COc1ccc(-c2nnc3sc(-c4cc(C)on4)nn23)cc1	-0.26	i
3	CC(=O)OCc1cnc(C)c2oc(=O)c(C(=O)Nc3ccc(Cl)cc3)cc12	-1.5	i
4	Cc1cc(C)c2sc(NC(=O)c3ccc(S(=O)(=O)N(C)CC4CCCO4)cc3)nc2c1 (stereo unspecified)	0.02	i
5	Cc1ccc(S(=O)(=O)NCc2nc(N)n(S(=O)(=O)c3ccc(C)cc3C)n2)c(C)c1	-0.07	i
6	CCc1onc(C)c1C1CCCN1Cc1ccccc1OC(C)C (stereo unspecified)	0.31	i

This part in full, previewed entries included:
entry	mol	Choline anaer gr early	Choline anaer gr
1	CC(C)CNC(=O)C1CCCN(C(=O)c2ccc(NS(=O)(=O)c3ccc(C(C)(C)C)cc3)cc2)C1 (stereo unspecified)	-1.2	i
2	COc1ccc(-c2nnc3sc(-c4cc(C)on4)nn23)cc1	-0.26	i
3	CC(=O)OCc1cnc(C)c2oc(=O)c(C(=O)Nc3ccc(Cl)cc3)cc12	-1.5	i
4	Cc1cc(C)c2sc(NC(=O)c3ccc(S(=O)(=O)N(C)CC4CCCO4)cc3)nc2c1 (stereo unspecified)	0.02	i
5	Cc1ccc(S(=O)(=O)NCc2nc(N)n(S(=O)(=O)c3ccc(C)cc3C)n2)c(C)c1	-0.07	i
6	CCc1onc(C)c1C1CCCN1Cc1ccccc1OC(C)C (stereo unspecified)	0.31	i
7	COc1ccc2cccc(CCNC(C)=O)c2c1	1.1	i
8	O=C(NCc1ccccc1Cl)C1CCCN(c2nc3ccccc3n(Cc3ccccc3)c2=O)C1 (stereo unspecified)	1.8	i
9	CCC(=O)Nc1nc2c(OC)cc(NC(=O)Nc3cccc(Cl)c3)cc2s1	0.37	i
10	O=C(Nc1cccc(Cl)c1)c1nnc(CCCC(=O)N2CCN(c3ccccn3)CC2)s1	-0.37	i
11	O=C(NC1CCCCC1)c1ccc(NC(=O)c2nsc3ccccc23)cc1	0.52	i
12	Cn1c(=O)n(CCC(=O)N2CCCC2)c(=O)c2cc(S(=O)(=O)NC(C)(C)C)ccc21	-0.16	i
13	CC(C)Oc1ccc(C(=O)Nc2ccc3c(c2)N(S(=O)(=O)c2ccccc2)CCC3)cc1	2.1	i
14	CN(CC(=O)NCCc1ccc(Cl)cc1)S(=O)(=O)c1ccc2c(c1)C(=O)NCC(=O)N2	0.63	i
15	Cc1ccc2oc(C(=O)N(Cc3ccc(N(C)C)cc3)CC3CCCO3)c(C)c2c1 (stereo unspecified)	0.62	i
16	Cc1cc(C)c2c(n1)SCCN2C(=O)Nc1cccc(Cl)c1C	0.33	i
17	CCOC(=O)c1[nH]c(C)c(CN(Cc2ccc(OC)cc2)S(C)(=O)=O)c1C	-0.65	i
18	Cc1cc(C)n(-c2nc3ccccc3nc2Nc2ccc(F)cc2)n1	1.8	i
19	Cc1ccc(NC(=O)N2CCCN(c3ccc(=O)n(-c4ccc(F)cc4)n3)CC2)cc1	0.44	i
20	CC(=O)N1CCc2c(sc3c2c(=O)n(-c2ccccc2)c(=O)n3CC(=O)Nc2ccccc2)C1	-0.01	i

Arranged by value in Choline anaer gr early (highest first): four from the list above.
nr	Molecule	Choline anaer gr early
8	O=C(NCc1ccccc1Cl)C1CCCN(c2nc3ccccc3n(Cc3ccccc3)c2=O)C1 (stereo unspecified)	1.8
14	CN(CC(=O)NCCc1ccc(Cl)cc1)S(=O)(=O)c1ccc2c(c1)C(=O)NCC(=O)N2	0.63
11	O=C(NC1CCCCC1)c1ccc(NC(=O)c2nsc3ccccc23)cc1	0.52
1	CC(C)CNC(=O)C1CCCN(C(=O)c2ccc(NS(=O)(=O)c3ccc(C(C)(C)C)cc3)cc2)C1 (stereo unspecified)	-1.2

Other entries follow:
entry	mol	Choline anaer gr early	Choline anaer gr
21	COC(=O)c1nnc2c(-c3ccc(OC)cc3)c(C)nn2c1C	0.72	i
22	CN(CCc1noc(-c2ccc(C(=O)NCc3cccnc3)cc2)n1)C(=O)c1ccccc1	0.13	i
23	CNC(=O)c1nn(-c2ccccc2)nc1CO	-1.3	i
24	CN1CCN(c2ccc(C(=O)O)cc2NS(=O)(=O)c2ccccc2)CC1	-1.3	i
25	Cc1nc(-c2cc(S(=O)(=O)NCC3CCCO3)cn2C)sc1C(=O)N1CCCC1 (stereo unspecified)	-0.93	i
26	O=C(Cc1csc(NC(=O)c2ccccc2)n1)Nc1ccc2c(c1)OCO2	2.3	i
27	COc1ccc(N2C(N)=NC(N)=NC23CCCC3)cc1	-0.28	i
28	Cc1cccc(-c2nccc(Nc3cccc(C(=O)NCCC(C)C)c3)n2)c1	1.3	i
29	CCC(Sc1nnc2n1CCN2c1ccc(F)cc1)C(=O)OC (stereo unspecified)	-0.25	i
30	CC(=O)N1CCc2cc(N3CC(C(=O)NCC(C)C)CC3=O)ccc21 (stereo unspecified)	0.36	i
31	COc1ccc(NC(=O)c2ccc(-n3nc(N4CCCC4)ccc3=O)cc2)cc1	-0.21	i
32	CCOC(=O)C1CCN(C(=O)c2oc3ccc4c(c3c2C)C(O)CC2(CCCCC2)O4)CC1 (stereo unspecified)	-1.9	i
33	O=C(O)c1cc(N2CCN(c3ccc(Cl)cc3)CC2)ccc1NC(=O)C1CC1	0.92	i
34	CC12CN3CC(C)(CN(C1)C3c1ccccc1Cl)C2O (stereo unspecified)	0.42	i
35	Cn1cc(S(=O)(=O)N2CCCCC2)cc1C(=O)Nc1ccc2c(c1)OCO2	1.4	i
36	O=C(Nc1ccccc1F)c1ccc(CN2CC(=O)N3CSCC3C2=O)cc1 (stereo unspecified)	-0.16	i
37	Cc1ccc(NC(=O)c2nnc(CNC(=O)Nc3cccc(C)c3)s2)cc1	-1.1	i
38	COc1cc(NC(=O)Cn2cnc3c(sc4nc(C)cc(C)c43)c2=O)cc(OC)c1	0.23	i
39	Cc1ccc(-c2nccc(N3CCCC(C(=O)NC4CCCc5ccccc54)C3)n2)cc1 (stereo unspecified)	0.5	i
40	COC(=O)c1ccc(CN2CCCC2c2ccc(Cl)cc2)cc1 (stereo unspecified)	-0.11	i

The listing continues:
entry	mol	Choline anaer gr early	Choline anaer gr
41	CCOC(=O)c1nc2ccccc2nc1NCCc1ccc(OCC)c(OCC)c1	0.22	i
42	NC[C@@H]1O[C@H](O[C@H]2[C@@H](O)[C@H](O[C@@H]3[C@@H](O)[C@H](N)C[C@H](N)[C@H]3OC3O[C@H](CO)[C@@H](O)[C@H](O)[C@H]3N)O[C@@H]2CO)[C@H](N)[C@@H](O)[C@@H]1O (stereo partly specified)	0.64	i
43	S=C=Nc1ccc(N=C=S)cc1	-0.01	i
44	O=C(Nc1ccccc1)Nc1nc(CC(=O)N2CCc3ccccc3C2)cs1	-0.59	i
45	Cc1cc(C2CCCN2C(=O)c2cc(C(C)C)on2)on1 (stereo unspecified)	-1.2	i
46	CCCCN(C)c1ncnc2c1cnn2-c1ccc(F)cc1	-0.14	i
47	O=C(CCc1nc(-c2ccccn2)no1)NC1CCCCC1	-0.48	i
48	O=C(CCCn1nnc2cc(S(=O)(=O)N3CCCC3)ccc21)NCc1cccc(Cl)c1	-1.6	i
49	O=C(CCCn1nc(-c2ccccc2)c2cc(Cl)ccc21)NCc1cccnc1	0.25	i
50	Cc1cccc(CN2CC=C(C(=O)Nc3ccc(Cl)cc3)CC2)c1	-1.7	i
51	CC1CCCCN1C(=O)c1cc(-c2cccnc2)on1 (stereo unspecified)	-1.3	i
52	CCOC(=O)c1[nH]c(C)c(CN(Cc2ccc(C)cc2)C(=O)Nc2ccc(OC)c(OC)c2)c1C	1.3	i
53	O=C1C2=C(C(c3ccccc3)=NCCN2)C(c2ccc(F)cc2)N1c1ccccc1 (stereo unspecified)	-0.6	i
54	COc1ccc2nc(-n3nc(C)c4c3NC(=O)CC4c3ccc(OC)c(O)c3)sc2c1 (stereo unspecified)	0.42	i
55	CC(C)NCc1ccc(-c2ccc(Br)cc2)o1	-0.94	i
56	COc1cccc(-c2nc(CS(=O)(=O)CC(=O)N3CCN(c4ccccn4)CC3)c(C)o2)c1	-0.71	i
57	COc1ccc(CCNS(=O)(=O)c2cc(-c3nc(C)c(C)s3)sc2C)cc1OC	-1.9	i
58	Cc1nc2nc3c(c(Nc4ccc(F)c(F)c4)n2n1)CCCC3	0.19	i
59	CCOC(=O)c1ccc(CSc2nc3c(c(=O)[nH]2)CCCC3)cc1	0.14	i
60	COC(=O)c1cc(S(=O)(=O)N2CCCC2C(=O)Nc2ccc(F)cc2Cl)cn1C (stereo unspecified)	-0.51	i

Further entries
entry	mol	Choline anaer gr early	Choline anaer gr
61	CCCN(CCC)CCNC(=O)C1CCN(c2nc3cccnc3s2)CC1	-0.4	i
62	CN(C)c1nc2ncn3c(=O)n(CC(=O)Nc4cccc(Br)c4)nc3c2s1	-1.8	i
63	CC1=NOC(C)(CNS(=O)(=O)c2ccc(F)cc2)C1 (stereo unspecified)	0.18	i
64	CCNCc1ccc(-c2ccc(Br)cc2)o1	-0.85	i
65	Cc1csc(-c2cc(S(=O)(=O)Nc3cc(Cl)ccc3C)c(C)s2)n1	0.86	i
66	O=S(=O)(c1ccc(-c2cnc(C3CCCC3)o2)s1)N1CCCCC1	1.3	i
67	Cc1ccc(-n2nc(C)c3c(=O)n(CC(=O)NCc4ccc(F)c(Cl)c4)ccc32)cc1	-0.3	i
68	CCOC(=O)c1c(NC(=O)N2CC(C)Oc3ccccc32)sc2c1CCCC2 (stereo unspecified)	-0.34	i
69	CC(C)(C)NS(=O)(=O)c1ccc2c(c1)CCN2C(=O)NC1CCCCC1	1.5	i
70	Cn1c(=O)n(CC(=O)O)c(=O)c2c1nc1n2CCS1	-0.46	i
71	Cc1nn(C(C)C(=O)NC(C)C)c(=O)c2c(-n3cccc3)n(-c3ccccc3)nc12 (stereo unspecified)	-1.4	i
72	CCCc1nnc2sc(-c3cccnc3)nn12	-0.41	i
73	Nc1nc2n[nH]nc2c(=O)[nH]1	-2.2&-0.63	i
74	Cc1ccc(C(=O)N2CCc3c(c(C(=O)NCc4ccccc4)nn3C)C2)cc1	-0.07	i
75	C=CCn1c(=O)c(=O)n(Cc2ccc(C(=O)NCC(C)c3ccccc3)cc2)c2ccccc21 (stereo unspecified)	0.51	i
76	Cc1ccc(N2C(=O)CN(S(C)(=O)=O)CC2(C)C(=O)NC2CCCC2)cc1F (stereo unspecified)	1.2	i
77	CCN(CC)C(=O)CN1CCN(c2cc(C(=O)O)c3cc(NC(=O)C4CCC4)ccc3n2)CC1	-0.45	i
78	Cc1cc2c(cc1C)NC1(CCCCCC1)C(=NCc1ccc(F)cc1)N2	0.04	i
79	CCOC(=O)c1ccc(NC(=O)c2c(-c3ccc(OC)cc3)oc3ccc(OC)cc23)cc1	2	i
80	O=C(c1ccccc1CN1C(=O)C2CCCN2C(=O)c2ccccc21)N1CCCC1 (stereo unspecified)	-0.34	i

(listing goes on)
entry	mol	Choline anaer gr early	Choline anaer gr
81	CCC(=O)Nc1cccc(-c2noc(C3CCCN(C(=O)c4ccc(C(C)C)cc4)C3)n2)c1 (stereo unspecified)	0.46	i
82	Cc1cc(-c2nn3c(-c4cccnc4)nnc3s2)c2ccccc2n1	-0.15	i
83	COc1cccc(NC(=O)N2CCN(C(=O)Cc3csc4ccccc34)CC2)c1	-0.19	i
84	CCCOc1ccc(CN2CCCC2c2c(C)noc2C)cc1OC (stereo unspecified)	-0.82	i
85	C=CCNC(=O)CCc1c(C)n(C)c2cc(-c3ccccc3C)nn2c1=O	-0.45	i
86	O=c1[nH]c(=O)c2nc3ccccc3nc2[nH]1	-0.43	i
87	O=C(Nc1c(-c2ccc(F)cc2)nc2ccccn12)c1ccccc1F	-0.31	i
88	CCn1nccc1C1CCCN1S(=O)(=O)c1ccc(F)cc1 (stereo unspecified)	-0.09	i
89	CCOC(=O)c1cc(C(=O)Nc2cc(C)cc(C)c2)c(=O)[nH]c1C	-2.2	i
90	COc1ccc(NC(=O)Nc2nnc(SCC(=O)Nc3cccc(C)c3)s2)cc1	0.17	i
91	Cc1ccc2[nH]cc(C(=O)N3CCSCC3)c(=O)c2c1	-0.75	i
92	COc1ccc(NC(=O)CN2CCCn3nc(C)cc32)cc1	-1	i
93	O=c1c2cn[nH]c2nc(SCc2nc(-c3ccc(Br)cc3)no2)n1-c1ccccc1	-1.1	i
94	O=C(NCc1cc(F)cc(F)c1)C1CC(=O)N(c2ccc3c(c2)CCN3C(=O)C2CC2)C1 (stereo unspecified)	1.1	i
95	CCOC(=O)CSc1nn2c(=O)c(C)nnc2s1	-0.13	i
96	Cc1ccc(Cl)cc1NCc1nc2nc3c(c(=O)n2[nH]1)CCC3	-0.08	i
97	CN(CCCNC(=O)c1nc(-c2nn(-c3ccccc3)c(=O)n(C)c2=O)no1)c1ccccc1	0.11	i
98	O=C(NCCCN1CCN(c2cccc(Cl)c2)CC1)c1csc(-c2ccncc2)n1	-2.2	i
99	CCn1c(COC)nc2ccccc21	0.2	i
100	CCN(CC)S(=O)(=O)c1ccc2c(c1)nc(CN1CCN(C(=O)Nc3cccc(C)c3)CC1)n2C	-0.47	i

New compounds follow
entry	mol	Choline anaer gr early	Choline anaer gr
101	CN(Cc1nc2cc(C(=O)N3CCCC3)ccc2n1C)S(=O)(=O)c1cc(F)ccc1F	0.03	i
102	COc1cccc(CSc2nc3ccncc3n2CC(=O)Nc2ccc(Br)cc2F)c1	-0.85	i
103	COc1ccc(NC(=O)CCCn2nc(C)c3c(C)n(-c4ccccc4)nc3c2=O)cc1OC	-1.7	i
104	Cc1ccc(Cl)cc1N1CCN(C(=O)C2CCN(c3ncnc4c3oc3ccccc34)CC2)CC1	-0.99	i
105	COc1ccc(NC(=O)CCn2cnc3c(-c4ccc(C)cc4)noc3c2=O)cc1OC	0.76	i
106	CCC(=O)N1CCCC(C(=O)NC2CC2)C1 (stereo unspecified)	0.04	i
107	Cc1ccc(C)c(N2CCN(C(=O)CCn3cnc4cc(S(=O)(=O)N5CCCC5)ccc43)CC2)c1	-1.1	i

Some of the compounds tested (hit frequency here may not be typical).
